Assay outcomes (PubChem)
NPR1 antag – blocks ANP-stimulated signaling of human Npr1 receptor; P16066; Potency, µM (doses to about 46.3 µM), without a hit: top-dose activity change, negative = inhibition, most hits filed as inhibitors; HEK293 hNpr1 GloSensor cGMP, ANP-stimulated luminescence; 76,000 tested, 1.6% active; AID 1347048; active = well fitted inhibition curve with a large enough effect; inconclusive = small, poorly fitted or top-dose-only effect; inactive = no such curve, though single readings can be large or run the other way;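 also: nearly all actives have a fitted effect of over 60% in size; nearly all hits also lower the signal before the agonist is added; a reference antagonist and vehicle were the controls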
Target sequence (P16066 whole entry, looked up): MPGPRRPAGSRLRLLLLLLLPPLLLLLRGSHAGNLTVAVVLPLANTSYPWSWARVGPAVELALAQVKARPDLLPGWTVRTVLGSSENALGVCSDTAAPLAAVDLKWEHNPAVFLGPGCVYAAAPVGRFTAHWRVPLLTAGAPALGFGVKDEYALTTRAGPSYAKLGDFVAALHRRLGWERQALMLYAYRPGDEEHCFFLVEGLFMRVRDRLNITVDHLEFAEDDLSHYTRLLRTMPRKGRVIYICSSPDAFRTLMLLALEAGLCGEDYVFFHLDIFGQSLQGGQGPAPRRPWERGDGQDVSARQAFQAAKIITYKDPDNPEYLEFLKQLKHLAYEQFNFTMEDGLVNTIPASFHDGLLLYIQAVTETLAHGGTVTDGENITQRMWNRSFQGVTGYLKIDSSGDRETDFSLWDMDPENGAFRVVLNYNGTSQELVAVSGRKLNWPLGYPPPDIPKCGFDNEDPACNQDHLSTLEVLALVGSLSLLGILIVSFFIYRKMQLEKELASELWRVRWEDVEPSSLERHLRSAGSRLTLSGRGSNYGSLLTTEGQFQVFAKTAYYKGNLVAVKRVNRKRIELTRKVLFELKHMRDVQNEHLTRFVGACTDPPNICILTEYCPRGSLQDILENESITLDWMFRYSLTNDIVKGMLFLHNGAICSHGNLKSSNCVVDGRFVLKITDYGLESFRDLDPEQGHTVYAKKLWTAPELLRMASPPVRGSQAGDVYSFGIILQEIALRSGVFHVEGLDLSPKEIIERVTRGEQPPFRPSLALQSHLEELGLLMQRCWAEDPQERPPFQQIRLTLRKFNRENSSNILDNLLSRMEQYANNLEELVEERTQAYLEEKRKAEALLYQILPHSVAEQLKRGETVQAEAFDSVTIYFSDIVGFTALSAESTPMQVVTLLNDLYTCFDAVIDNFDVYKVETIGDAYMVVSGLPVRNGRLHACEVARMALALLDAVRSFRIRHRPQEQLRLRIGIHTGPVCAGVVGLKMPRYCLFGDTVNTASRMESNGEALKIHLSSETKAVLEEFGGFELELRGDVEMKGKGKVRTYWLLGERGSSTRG
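HEK293 cells stably expressing human Npr1 and cGMP GloSensor pGS-40F, loaded 2 h with 2% GloSensor reagent, given compound 30 min at room temperature. Luminescence read before and 20 min after 0.1 nM hNppA.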
The depositor's hits bear a star; ? = inconclusive; [ ] = another dose, or the depositor's remark. % is scaled to controls: 0 for no effect and ±100 for the full control effect; potency is read from the fitted curve at half-maximal effect. Only part of the results is shown; the hit share may differ from the screen's.

SMILES	NPR1 antag
COCC1CN(C)CC12CCN(C(=O)C1CCOCC1)CC2 (stereo unspecified)	-9%
COc1ccc(N2C(=O)C3(CCCCC3)C2C(=O)NCCc2c(C)noc2C)cc1 (stereo unspecified)	4%
COc1ccc(C(=O)N[C@@H]2CN(C(=O)Nc3cccc(C(F)(F)F)c3)CCC[C@H]2O)cc1	2%
CC(C)=CCC1(CO)CCCN(C(=O)c2cccn2C2CC2)C1 (stereo unspecified)	-25%
CCCNC(=O)C1COC2(CCN(C(=O)c3cccc(C)c3)CC2)N1C(=O)c1ccc(OC)cc1 (stereo unspecified)	-1%
O=C(N[C@H]1CO[C@H]2[C@@H]1OC[C@@H]2n1nnnc1Oc1ccc(-n2cncn2)cc1)C1CCCCC1	2%
FC(F)(F)c1cccc(Nc2ncc(-c3cccnc3)c3c2OCC3)c1	-16%[70.6 µM]
COc1ccc(OC)c(C2CCN(C(=O)c3cc4ccccc4[nH]c3=O)C2)c1 (stereo unspecified)	4%
OC[C@@H]1CN(Cc2ccccc2)C[C@H]1c1nc(-c2ccncc2)no1	?
Cc1cc(C(=O)N(C)C2CCc3nnc(C)n3CC2)c(C)n1Cc1ccco1 (stereo unspecified)	0%
COCCOC1CCOC2(CCN(C(=O)c3cccnc3)CC2)C1 (stereo unspecified)	-14%
Cn1c(CO[C@H]2CN(C(=O)c3ccccc3)C[C@H]2F)nc2ccccc21	-8%[70.6 µM]
Cn1c(CN2C[C@H](O)C[C@H]2c2nc(-c3ccc4c(c3)OCO4)no2)nc2ccccc21	0%[70.6 µM]
COc1ccc(OC(=O)N2CCC(Oc3ccc4c(cnn4CCC(=O)O)c3)CC2)cc1	-10%[70.6 µM]
COc1cc(NC(=O)CCC2CCCN(C(=O)CCN3CCCCO3)C2)cc(OC)c1 (stereo unspecified)	3%

Reformatted: entries from further up
smiles,NPR1 antag
OC[C@@H]1CN(Cc2ccccc2)C[C@H]1c1nc(-c2ccncc2)no1,?
Cc1cc(C(=O)N(C)C2CCc3nnc(C)n3CC2)c(C)n1Cc1ccco1 (stereo unspecified),0%
COCCOC1CCOC2(CCN(C(=O)c3cccnc3)CC2)C1 (stereo unspecified),-14%

6 entries from above, arranged by the number in NPR1 antag, low to high:
SMILES	NPR1 antag
COCCOC1CCOC2(CCN(C(=O)c3cccnc3)CC2)C1 (stereo unspecified)	-14%
COCC1CN(C)CC12CCN(C(=O)C1CCOCC1)CC2 (stereo unspecified)	-9%
CCCNC(=O)C1COC2(CCN(C(=O)c3cccc(C)c3)CC2)N1C(=O)c1ccc(OC)cc1 (stereo unspecified)	-1%
O=C(N[C@H]1CO[C@H]2[C@@H]1OC[C@@H]2n1nnnc1Oc1ccc(-n2cncn2)cc1)C1CCCCC1	2%
COc1cc(NC(=O)CCC2CCCN(C(=O)CCN3CCCCO3)C2)cc(OC)c1 (stereo unspecified)	3%
COc1ccc(N2C(=O)C3(CCCCC3)C2C(=O)NCCc2c(C)noc2C)cc1 (stereo unspecified)	4%

Continued.
SMILES	NPR1 antag
COCCNc1ncccc1-c1noc([C@@H]2CCCN2Cc2ccncc2)n1	0%[70.6 µM]
Cc1ccc(-c2ccc3nnc(CNC(=O)COc4ccccc4)n3n2)cc1	12%
O=C(N[C@H]1CO[C@H]2[C@@H]1OC[C@@H]2n1cc(CC2CCCCC2)nn1)C1CC1	-15%[70.6 µM]
CC(C)(C)NC(=O)N1C[C@@H](Oc2cccnc2)C[C@H]1C(=O)N1CCCC1	-5%
Cn1c(CNC(=O)CC2CCN(S(C)(=O)=O)C2)nc2ccccc21 (stereo unspecified)	4%
COc1ccccc1N1CCN(c2ncncc2-c2nc(-c3ccccc3)no2)CC1	-13%
Cc1noc(-c2ccn3c(CNC(=O)COc4ccccc4)nnc3c2)n1	1%
CCN(CCCNC(=O)CC1=C2CCCCC2NC1=O)c1ccccc1 (stereo unspecified)	1%
CN(CCc1ccncc1)C(=O)CCc1ccnc(N2CCCC2)c1	7%
Cc1cccc(NC(=O)Nc2ccc(C)n(CC(=O)NCCC(C)C)c2=O)c1	-3%
CCCCN1C(=O)C(CC(=O)N(C)C)Sc2ncccc21 (stereo unspecified)	1%
Cc1cnc(C(=O)N[C@@H]2CCC[C@@H]2C(=O)NCc2ccccc2C)cn1	9%
Cc1nc(N2CCCCC2)ncc1C(=O)NC1CCOC2(CCOCC2)C1 (stereo unspecified)	0%
Cc1noc(C)c1CN1CC2(CCN(C(=O)c3cccc(F)c3)CC2)CC1=O	-1%
CN(C)C(=O)c1ccc(-c2cc(NC3CCCC3)nc3[nH]ccc23)o1	6%
COc1ccccc1C(O)c1nc(Nc2ccc(Cl)cc2F)n[nH]1 (stereo unspecified)	1%[70.6 µM]
CCc1cccc2c(C(CC(=O)NCCc3ccc(OC)c(OC)c3)c3ccccc3OC)c[nH]c12 (stereo unspecified)	-14%
CNCCN1C(=O)CC[C@H]2CN(C(=O)c3ccc(Cl)cn3)CC[C@H]21	5%
COc1ccccc1-c1cc(C(=O)NCCc2cnc[nH]2)c2c(c1)N(C)CCO2	-7%[70.6 µM]
O=C1NCCCc2[nH]c(-c3csc(-c4ccccc4)n3)nc21	-4%
CN(C)c1ccc(NC(=O)Cn2cccc2-c2nc(-c3ccccc3)no2)cc1	7%
COc1ccc2ccc(OCc3nc(C(=O)N4CCNC(=O)C4C)co3)cc2c1 (stereo unspecified)	11µM*
CN(CCC1(O)CCCC1)C(=O)C1CCC(=O)N(Cc2ccccc2F)C1 (stereo unspecified)	2%
CCN1C(=O)C2CC3(CCN(C(=O)CC(C)C)CC3)CN2C1=O (stereo unspecified)	3%
CCNC(=O)N[C@H]1[C@H](O)[C@@H](Sc2ccccc2)[C@@H]2OC[C@H]1O2	6%[70.6 µM]
CN1C(=O)c2cncnc2OCC1CNC(=O)Cc1cccc(Cl)c1 (stereo unspecified)	0%[70.6 µM]
COc1ccc(-c2nnc3n2CCN(C(=O)Nc2ccccc2)C3)cc1	2%
O=C1CCCN1CCN1CCOc2c(O)cc(-c3csc4ccccc34)cc2C1	2%
Cn1ncc(N2CCOC(CCNc3ccc(C#N)cn3)C2)cc1=O (stereo unspecified)	4%
CC(C)CN1CC[C@H](c2nc3c(C(N)=O)cccc3[nH]2)C1	-8%[70.6 µM]
CN1CC(=O)N(C2CCC2)Cc2c(NCCCO)ncnc21	6%[70.6 µM]
Cc1ccc(OCc2nc(C3CCN(C(=O)Cn4nc(C)cc4C)CC3)no2)cc1	-19%
CC(C)n1cc(C(=O)N2CCCC(c3nnc(Cn4ccnc4)n3C)C2)cn1 (stereo unspecified)	-1%
O=C1Nc2ccccc2CC12CCN(Cc1ccc(OC(F)(F)F)cc1)CC2	0%
Cc1cc(C)cc(NC(=O)c2cc(-c3ccc[nH]3)n[nH]2)c1	-3%
COCCCNC(=O)c1ccc2c(c1)C(O)CCCCCN2C (stereo unspecified)	-7%
CNC(=O)[C@@H]1CN(C(=O)CCc2ccc(OC)cc2)C[C@H]1COC	6%
Cc1noc(C)c1[S+](=O)([O-])N1CCC2(CC1)OCCN(c1ccc(F)cc1)C2=O	-7%[70.6 µM]
CCC(C)NC(=O)C1COC2(CCN(C(=O)c3ccc(Cl)cc3)CC2)N1C(=O)c1ccccc1C (stereo unspecified)	-5%
Cc1cnc(C2CCC2)n1CC1CCN(C(=O)CC2CCCC2)CC1	-3%
O=C1CCCN1CCCN1C(=O)[C@@H]2C[C@@H](O)CN2C2(CN(Cc3ccccc3)C2)C1=O	1%[70.6 µM]
CN1C(=O)c2cccn2CC1C(=O)NC1CCS(=O)(=O)C1 (stereo unspecified)	-3%
CCN1c2cc(C(=O)Nc3ccc(Br)cc3)ccc2C(=O)N2CCCCC21 (stereo unspecified)	-10%
O=C(CN1C(=O)NC2(CCS(=O)(=O)CC2)C1=O)Nc1ccc(F)c(Cl)c1	-1%
CC(=O)N1CCn2c(nn(-c3ccc(F)cc3)c2=O)C1	0%[70.6 µM]
Cn1cc(C(=O)NCC2CN(C(=O)Cc3cccc(Oc4ccccc4)c3)CC23CN(c2ccccc2)C3)cn1 (stereo unspecified)	6%
Cc1cc(NC(=O)Cn2ccn3nc(-c4ccc(F)cc4)c(CO)c3c2=O)no1	0%
COc1ccc(C(=O)N2CCC(c3n[nH]c(=O)n3Cc3ccc(F)cc3)CC2)cc1	2%
COc1ccc(C2Cn3nnc(-c4noc(-c5ccc(C)cc5)n4)c3CO2)cc1 (stereo unspecified)	-18%
O=C(NC[C@H]1OC[C@@H](NC2CCC2)[C@@H]1O)c1ccccc1	2%[70.6 µM]
Cc1cccc(N2Cc3c(NCc4ccc5c(c4)OCO5)ncnc3N(C)CC2=O)c1	-1%
COc1ccc(-c2noc([C@@H]3C[C@@H](O)CN3Cc3ccccn3)n2)cc1	?
Cc1cccc(C(=O)N2CCCCCNC(=O)[C@H]3C[C@H](C(=O)N4CCc5ccccc5C4)C[C@H]32)c1	-14%
O=C(C1CC1)N1CCCC(N2CCN(c3cccc(C(F)(F)F)c3)CC2)C1 (stereo unspecified)	7%
CCCNC(=O)[C@@H]1CCCN1[C@@H](C(=O)NC)c1ccc(OC)cc1	3%[70.6 µM]
COc1ccc(Cn2c(C3CCN(C(=O)Cc4cccc(F)c4)CC3)n[nH]c2=O)cc1	-1%
COc1ccc(CN2C(=O)CO[C@H]3CN(C4CCOCC4)C[C@H]32)cc1	3%[70.6 µM]
O=C(Cc1cccc(F)c1)N1CCN(c2cc(C(F)(F)F)ncn2)CC1	-18%
Cc1cccnc1C(=O)N[C@@H]1CN(c2ncccn2)C[C@H]1CO	2%
O=C(CC(c1ccccc1)c1cn(Cc2ccccc2)c2ccc([N+](=O)[O-])cc12)N1CCOCC1 (stereo unspecified)	?

Marked active in NPR1 antag, among the entries above:
SMILES	NPR1 antag
COc1ccc2ccc(OCc3nc(C(=O)N4CCNC(=O)C4C)co3)cc2c1 (stereo unspecified)	11µM*

Other entries follow.
SMILES	NPR1 antag
CN(C)[C@@H]1[C@@H](NC(=O)c2cc(=O)n(-c3ccccc3)[nH]2)[C@H]2CCO[C@H]21	-1%
CCOCc1nc(C2CCCN(C(=O)Cc3ccc(F)cc3)C2)no1 (stereo unspecified)	9%
COCCC(=O)Nc1ccc2c(c1)CCC(=O)N2C	-1%
O=C(Nc1cc(F)ccc1Cl)c1cnc(-c2ccccc2)nc1-c1ccncc1	-22%
COc1cccc(CN2CC(C(=O)NCc3cc4ccccc4[nH]3)CCC2=O)c1 (stereo unspecified)	-16%
O=C(C[C@H]1NC(=O)c2ccccc2NC1=O)Nc1ccc(N2CCCS2(=O)=O)cc1	4%
O=C(c1ccc2cc[nH]c2c1)N1CCCN(c2cc(-c3ccc(Cl)cc3)[nH]n2)CC1	?
Cc1ccc2c(c1)N(CC(=O)N1C[C@@H](C)[C@](O)(C3CCC3)C1)C(=O)CO2	3%
O=C(NC1CCCCC1)N[C@H]1CCN2C(=O)c3ccc(Cl)cc3NC(=O)[C@H]12	-1%[70.6 µM]
Cc1ncsc1CCC(=O)N[C@@H]1CCOC[C@H]1OCC(=O)O	5%
CN(C)C(=O)Cc1c[nH]c2ncc(-c3cnn(C)c3)cc12	7%[70.6 µM]
CCN1C(=O)CN(C(=O)CC(C)C)CC12CCOCC2	3%
O=C(c1n[nH]c2ccccc12)N1CCCC1c1nc(CCOCC2CC2)no1 (stereo unspecified)	-1%
Cc1ccc(C(=O)N2CCC3(CC2)C(=O)N(C)c2ccccc23)cc1C	-2%
O=C1N(c2ccccc2)C[C@H]2CN(C3CCOCC3)CCN12	3%[70.6 µM]
COCc1c(C(=O)N2C[C@@H](COC)[C@H](c3ccncc3)C2)noc1C	10%
CCc1noc(-c2ccn3c(CNC(=O)CCc4ccccc4)nnc3c2)n1	13%
COc1ccc(C2(C(=O)N3CCC4(CC3)C(OC)CN4c3cccc(F)c3)CC2)cc1 (stereo unspecified)	11µM*
COc1ccc(CCN2CCC(CN(C)C(=O)NCc3ccccc3)CC2)cc1	0%
O=C(c1ccc2ccccc2n1)N1CCC(n2cc(-c3nc(-c4ccccc4)no3)nn2)C1 (stereo unspecified)	?
CC(=O)N1CCN(c2ccnc(-c3nnc(C)n3-c3ccccc3)c2)CC1	-1%[70.6 µM]
O=C1C(c2ccccc2)CC2(CCN(Cc3ncccn3)CC2)CN1C1CC1 (stereo unspecified)	7%
COc1ccc(CNC(=O)C[C@@H]2C[C@H]3O[C@H](CNC(=O)NCc4ccccc4)[C@@H](O)[C@H]3O2)cc1	0%
CS(=O)(=O)N(C1CCOCC1)C1CN(C(=O)C2(c3ccccc3)CC2)C1	8%
Cc1cccc(C(=O)N2[C@@H]3CC[C@H]2CC(NC(=O)c2ccncc2)C3)c1 (stereo partly specified)	6%
O=C(COc1ccc(NC(=O)C2CC2)cn1)NCc1ccc(F)cc1F	2%
CC(=O)Nc1ccc(CN2CCC3(CC2)COc2ccccc2NC3=O)cc1	4%
Cc1ccc(CN2CCCC3(CN[S+](=O)([O-])c4ccccc4N3)C2)cc1 (stereo unspecified)	-2%
O=C(Nc1cccc(C(F)(F)F)c1)N[C@H]1[C@H](O)[C@@H](N2CCOCC2)[C@@H]2OC[C@H]1O2	-1%[70.6 µM]
Cc1cc(CN(C)Cc2cn(-c3cccc(F)c3)nc2-c2ccc(C)o2)n[nH]1	-4%
Cc1cnc(C(=O)N[C@@H]2CCC[C@@H]2C(=O)NCc2ccc(F)cc2)cn1	-8%
O=C(COc1ccc(Cl)cc1)N1CCC(c2n[nH]c(=O)n2Cc2ccc(F)cc2)CC1	-4%
Cc1noc(C2CC3(CCN(C(=O)C4CCCC4)CC3)CN2C)n1 (stereo unspecified)	-2%
O=C(Cn1cccn1)N1C[C@@H](COCC2CC2)[C@H](c2ccccn2)C1	2%
CCCCc1nc(C)cc(NCCNC(=O)C2CCCN(C(N)=O)C2)n1 (stereo unspecified)	5%
